Screens deposited in PubChem by Emory University Molecular Libraries Screening Center.
Measles inh: inhibitors of measles virus growth in cells, primary screen, measles RdRp inhibitor project, cell-based, single point, HTS. 0.1% of 33,000 active. z-score (no concentration beside the values). infected Vero cells, GFP fluorescence, 64 h; stronger effect = lower value;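 active = z-score under -3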;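 note: score is relative to mean and SD of the compound wells of a plate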
* hit, by the source's call. Not all compounds are listed; count on the stated rates, not on these rows.

SMILES	Measles inh
COc1ccc(CCNC(=O)C2(C)CCC(=O)N2Cc2cccs2)cc1OC (centres undefined)	0.61
O=C(Cc1ccc(Cl)cc1)Nc1ccc2oc(-c3ccccc3)nc2c1	-0.57
CCc1ccc(CN2C(=O)c3ccccc3C2C(=O)NCC2CCCO2)cc1 (centres undefined)	-1.2
CCOC(=O)c1sc(Nc2ccccc2Cl)nc1C	0.1
COCCCNC(=O)Cn1cc(C(=O)C(F)(F)F)c2ccccc21	-0.47
COC(=O)C1=C(C)N(c2ccc(C(C)C)cc2)C(=O)C1	0.08
COc1cccc(C2NCCc3cc(OC)c(OC)cc32)c1 (centres undefined)	0.77
CCOC(=O)c1ccc(N2C(=O)C(Oc3ccc(Cl)cc3)C2c2ccc(OCC)cc2)cc1 (centres undefined)	0.42
O=[N+]([O-])c1ccccc1S(=O)(=O)Nc1cccc2cccnc12	-0.52
CCOC(=O)c1ccc(-n2c(N)c(C(=O)NCC3CCCO3)sc2=S)cc1 (centres undefined)	2.2
Cc1ccc(O)c(CN2CCCCC2)c1	-0.1
Cn1c2ccccc2c2cc(I)ccc21	-0.47
COc1cccc(-c2nnc(NC(=O)c3ccc(S(=O)(=O)N4CCCC4)cc3)o2)c1	-0.41
O=C1C2C(C(=O)N1c1ccccc1)N1CCCN1C2c1ccccc1 (centres undefined)	0.55
O=S(=O)(Nc1cccc(C(F)(F)F)c1)c1cccc2nonc12	2.7
COc1cc(C2Nc3ccc4ccccc4c3C3=C2C(=O)CC(C)(C)C3)cc(Cl)c1O (centres undefined)	-1.2
CCc1ccc(-c2nn(-c3ccccc3)cc2C2SCC(=O)N2Cc2ccccc2)cc1 (centres undefined)	-0.98
Cc1cc(C)c(S(=O)(=O)N2CCC(C(N)=O)CC2)c(C)c1	-1
Brc1ccc(NCc2nc3ccccc3n2CCOc2ccccc2)cc1	-0.07
Cc1nc2c(C(=O)NCCCN3CCCC(C)C3)cnn2c(C)c1Cc1ccccc1 (centres undefined)	1.6
COc1ccc(C(=O)Nc2ccc(N3CC4CC(C3)c3cccc(=O)n3C4)c(C#N)c2)cc1 (centres undefined)	-0.23
Cc1ccc(-c2cc3nc(-c4cccs4)cc(C(F)(F)F)n3n2)cc1	1.2
CCCSc1oc(-c2cccs2)nc1S(=O)(=O)c1ccc(F)cc1	2.8
CCOC(=O)C1=C(C)NC2=C(C(=O)CC(C)(C)C2)C1c1cc(C)sc1SC (centres undefined)	-0.13
COc1ccc(C2CC(C(F)(F)F)n3nc(C(=O)Nc4cccc5ccccc45)c(Cl)c3N2)cc1OC (centres undefined)	-0.56

An excerpt from above in order of number of heavy atoms, largest number first:
SMILES	Measles inh
COc1ccc(C2CC(C(F)(F)F)n3nc(C(=O)Nc4cccc5ccccc45)c(Cl)c3N2)cc1OC (centres undefined)	-0.56
CCOC(=O)c1ccc(N2C(=O)C(Oc3ccc(Cl)cc3)C2c2ccc(OCC)cc2)cc1 (centres undefined)	0.42
CCc1ccc(-c2nn(-c3ccccc3)cc2C2SCC(=O)N2Cc2ccccc2)cc1 (centres undefined)	-0.98
COc1cc(C2Nc3ccc4ccccc4c3C3=C2C(=O)CC(C)(C)C3)cc(Cl)c1O (centres undefined)	-1.2
COc1cccc(-c2nnc(NC(=O)c3ccc(S(=O)(=O)N4CCCC4)cc3)o2)c1	-0.41
CCc1ccc(CN2C(=O)c3ccccc3C2C(=O)NCC2CCCO2)cc1 (centres undefined)	-1.2
CCOC(=O)C1=C(C)NC2=C(C(=O)CC(C)(C)C2)C1c1cc(C)sc1SC (centres undefined)	-0.13
O=C(Cc1ccc(Cl)cc1)Nc1ccc2oc(-c3ccccc3)nc2c1	-0.57
Cc1ccc(-c2cc3nc(-c4cccs4)cc(C(F)(F)F)n3n2)cc1	1.2
COCCCNC(=O)Cn1cc(C(=O)C(F)(F)F)c2ccccc21	-0.47
O=S(=O)(Nc1cccc(C(F)(F)F)c1)c1cccc2nonc12	2.7
COc1cccc(C2NCCc3cc(OC)c(OC)cc32)c1 (centres undefined)	0.77
Cc1cc(C)c(S(=O)(=O)N2CCC(C(N)=O)CC2)c(C)c1	-1
COC(=O)C1=C(C)N(c2ccc(C(C)C)cc2)C(=O)C1	0.08
CCOC(=O)c1sc(Nc2ccccc2Cl)nc1C	0.1
Cn1c2ccccc2c2cc(I)ccc21	-0.47

(listing goes on)
SMILES	Measles inh
CCOC(=O)C1=C(N)OC2=C(C(=O)CCC2)C1c1cccc(Cl)c1 (centres undefined)	0.05
NC1C(=O)Nc2ccccc21 (centres undefined)	1.8
Cc1ccc(Cl)cc1NC(=O)Cn1c2ccccc2c(=O)c2ccccc21	0.49
COc1ccc(CCc2nc(C)ccc2O)cc1	0.56
CCN(c1cccc(C)c1)S(=O)(=O)c1cc(C(=O)Nc2ccc(Br)cc2)ccc1F	-0.57
O=C(Nc1ccccc1C(=O)O)c1ccc(N2C(=O)C3C4C=CC(C4)C3C2=O)cc1 (centres undefined)	-0.71
CCN(CC)S(=O)(=O)c1cccc2cc(C(=O)O)c(O)cc12	0.79
O=[N+]([O-])c1cc(Cl)ccc1NCCCNS(=O)(=O)c1ccc(Cl)cc1	-0.29
C(=Nc1ccc(Nc2ccccc2)cc1)c1ccccc1	-2.3
CCOC(=O)c1c(NC(C)=O)sc2c1C1CCN2CC1	-0.27
CCCCc1cc(=O)oc2cc(OCC(N)=O)ccc12	0.96
Cc1cccc(C(=O)Nc2sc3c(c2C(N)=O)CCCC3)c1	-0.16
CC(NC(=O)C(Cc1ccc([N+](=O)[O-])cc1)N1C(=O)c2ccccc2C1=O)c1ccccc1 (centres undefined)	-0.61
CCOc1ccc(S(=O)(=O)N(CC(=O)Nc2ccc(C)c(C)c2)c2ccc(C)cc2)cc1	0.04
O=C(CCC1N=C2c3ccccc3N=C(SCC(=O)c3ccc(F)cc3)N2C1=O)NC1CCCCC1 (centres undefined)	-0.78
Fc1ccc(CNc2ncnc3c2cnn3-c2ccccc2)cc1	-0.36
COc1cc([N+](=O)[O-])ccc1NC(=O)c1cc(-c2ccccc2)nc2ccccc12	1.4
NS(=O)(=O)c1ccc(CCNC(=O)CN2C(=O)C3C4C=CC(C4)C3C2=O)cc1 (centres undefined)	-1
CCOc1ccc(C(=O)c2sc3nc(N)c(C#N)c(CC)c3c2N)cc1	-1.8
CC1=C(C(=O)OC(C)C)C(c2ccc(-c3cccc([N+](=O)[O-])c3)o2)C(C(=O)OC(C)C)=C(C)N1	-0.49
O=C(Cc1ccccc1)Nc1cccc(-c2nnc(-c3ccccc3)o2)c1	-0.93
CCOc1ccc(S(=O)(=O)NC2CCCCCC2)c2cccnc12	0.04
CC1=CC(C)(C)N(C(=O)Nc2cccc(Cl)c2)c2cc(C)c(C)cc21	-0.49
O=[N+]([O-])c1ccc(C=Nc2ccc(-c3nc4ccccc4o3)cc2)s1	-1.3
COc1ccc2cc(C3CC(c4ccc(Cl)cc4)=NN3C(=O)c3ccco3)c(Cl)nc2c1 (centres undefined)	-0.18
The list goes on:
SMILES	Measles inh
CN(C)CCCNc1ccc([N+](=O)[O-])cc1Cl	-1.2
CC1=C(C(=O)OCCCBr)C(c2ccccc2)NC(=O)N1 (centres undefined)	0.88
CCCCNC(=O)CN1N=C(c2ccc(Cl)cc2)CCC1=O	-0.78
O=c1[nH]c(C=Cc2ccccc2)c([N+](=O)[O-])c(=O)[nH]1	0.37
O=C(CN1C(=O)c2ccccc2C1=O)Nc1ccc(C(=O)Nc2cccc(O)c2)cc1	-0.86
Cc1ccccc1NC(=O)CSc1nc(-c2ccccc2)cn1-c1ccc(F)cc1	-0.39
CCN(CCCNC(=O)c1cc2c(=O)[nH]c3ccccc3c2s1)c1ccccc1	-1.4
CCN(CC)C(=O)C1CC(=O)N(c2ccc(OC)cc2)C1c1ccc(OC)cc1 (centres undefined)	-0.56
CC(=O)C1C(c2cccc(F)c2)NC(=O)NC1(O)C(F)(F)F (centres undefined)	-0.13
Cc1ccc(-c2nn(CC(=O)Nc3ccc(OC(F)(F)F)cc3)c(=O)c3ccccc23)cc1S(=O)(=O)N(C)C	0.8
CC(=O)n1ccc2ccccc21	1.6
CCOC(=O)c1ccc(N=Cc2ccc(C(C)C)cc2)cc1	2.2
Cc1ccc(-n2c(=O)c3sccc3n(CC(=O)NC3CCCC3)c2=O)cc1	1.4
CCOC(=O)c1cnc2ccc(OCC)cc2c1NCc1ccccc1	-0.08
CC1CCCC(NC(=O)C2CCC(CNS(=O)(=O)c3ccccc3)CC2)C1C (centres undefined)	0.71
Cc1ccc(NC(=O)c2nn3c(C(F)(F)F)cc(-c4ccco4)nc3c2Cl)cc1C	1
CCCC(=O)NC(c1cccs1)c1cc(Cl)c2cccnc2c1O (centres undefined)	0.98
O=C(NC1CCCC1)C(c1ccc(Cl)cc1)N1CCCCC1 (centres undefined)	-0.28
O=C(Nc1ccc(NC(=O)c2ccco2)cc1)c1cnccn1	1.6
Cc1onc(-c2ccccc2)c1C(=O)N1CCN(Cc2ccc3c(c2)OCO3)CC1	-0.52
CCOC(=O)C1=C(C)NC(=S)NC1c1cc(OC)ccc1OC (centres undefined)	1.7
OCn1nc(-c2ccncc2)n(Cc2ccccc2)c1=S	0.7
COc1cc2c(cc1OC)C1C(C(=O)NC3CC3)c3ccccc3C(=O)N1CC2 (centres undefined)	1.3
CC(=O)Nc1ccc(N2C(=O)CSC2c2ccc([N+](=O)[O-])cc2)cc1 (centres undefined)	-0.27
O=C(Nc1cc(C(F)(F)F)ccc1Cl)c1noc2c1CCC2	0.95
(next part)
SMILES	Measles inh
COc1ccc(S(=O)(=O)N(CC(=O)Nc2ccc(C)c(Cl)c2)c2ccc(C)cc2)cc1	0.16
CN1C(=O)C(O)(CC(=O)c2ccc(Cl)cc2)c2ccccc21 (centres undefined)	0.7
COc1cc(OC)cc(C(=O)Nc2cc(C(=O)N3CC(C)CC(C)C3)ccc2N2CC3CC(C2)c2cccc(=O)n2C3)c1 (centres undefined)	-0.56
COc1ccc(C2C(C(=O)Nc3cnc4ccccc4c3)CC(=O)N2c2ccc(OC)cc2)cc1 (centres undefined)	-0.73
O=C(c1ccncc1)N1CCN(Cc2cccc(Oc3ccccc3)c2)CC1	-0.53
CCc1ccc(C2C(C(=O)OC(C)(C)C)C(=O)CC(C)(O)C2C(=O)OC(C)(C)C)cc1 (centres undefined)	0.28
O=C(Nc1ccccc1C(=O)N1CCCCC1)c1ccc(Cl)cc1	2.6
O=C(CCn1nc(-c2ccc(Cl)cc2)ccc1=O)N1CCN(c2ccccn2)CC1	-0.98
CC(C)(C)c1ccc(Oc2coc3cc(OC(=O)c4ccccc4)ccc3c2=O)cc1	-0.67
O=C(CCCN1C(=O)c2cccnc2C1=O)Nc1ccc(C(F)(F)F)cc1	1.1
CCOCCOC(=O)C1=C(C)N(C)C(=O)NC1c1ccc(Cl)cc1 (centres undefined)	-0.72
COc1ccc(CNC(=O)CCSCc2cccc(Cl)c2)cc1	-1.3
Brc1ccc(-c2nn(-c3ccccc3)cc2-c2nc3ccccc3[nH]2)cc1	0.12
COc1ccc(C2/C(=C(\O)c3ccccc3)C(=O)C(=O)N2CO)cc1 (centres undefined)	-0.38
C=C(C)Cn1c(N2CCOCC2)nc2c1c(=O)[nH]c(=O)n2C	1.2
Cc1c(Cl)c([N+](=O)[O-])nn1CC(=O)Nc1ccc(OC(F)(F)F)cc1	-1.2
CCOC(=O)C1=C(C)Nc2nc(SCc3ccccc3Cl)nn2C1c1ccccc1OC (centres undefined)	0.68
Cc1ccc(CSc2nc3ccsc3c(=O)n2C2CCCCC2)cc1	0.12
Cc1ccccc1C(=O)Nc1c2c(nn1-c1ccc(F)cc1)CS(=O)C2 (centres undefined)	0.09
C=CCSc1nnc2c(n1)OC(c1ccc(OC)c(OC)c1)Nc1ccc(Br)cc1-2 (centres undefined)	0.76
CCC(=O)Nc1nc(C)c(-c2csc(Nc3ccc(O)cc3)n2)s1	-0.29
CCOC(=O)C1=C(C)N2CCN=C2S1	0.57
Cc1c(C(=O)Nc2sc3c(c2C(N)=O)CCCC3)cccc1[N+](=O)[O-]	1.1
Cc1ccc(NC(=O)CSc2nc3ccccc3s2)cc1C	-0.65
COc1ccc(NC(=O)c2cc(-c3ccco3)on2)cc1OC	0.9
Additional structures
SMILES	Measles inh
Cc1cc(=O)c2c([nH]1)C(O)=C(CN(C)C)C(=O)C2=O	-0.06
COc1ccc(C2C=C(c3ccc(I)cc3)Nc3ncnn32)c(OC)c1OC (centres undefined)	-0.21
COc1ccc(CN2CC(C(=O)NCCCN3CCCC3)CC2=O)cc1 (centres undefined)	-0.12
CCCN(CCC)c1nc(-c2ccccc2F)nc2ccccc12	0.63
Cn1c(=O)c2c(ncn2CC(=O)NC(c2ccccc2)c2ccccc2)n(C)c1=O	-0.55
N#CCCn1c(=S)[nH]c2c(=O)[nH]cnc21	-0.6
COC(=O)C1=C(C)N(C)C(=O)NC1c1c(Cl)nc2ccccn2c1=O (centres undefined)	1.8
CCN(Cc1ccccc1)S(=O)(=O)c1ccc2c(c1)CCN2C(=O)C1CC1	-0.21
O=S(=O)(N=Cc1ccccc1)c1cccs1	-0.08
COc1ccc(C2C3C(=O)N(c4ccccc4Cl)C(=O)C3ON2c2ccccc2)cc1 (centres undefined)	0.03
NC(=O)C1CCN(C(=O)c2ccc3c(=O)n(Cc4ccco4)c(SCC(=O)c4ccccc4)nc3c2)CC1	2
CCn1c(N)c(C(N)=O)sc1=S	-1.1
CC(C)COC(=O)c1ccc2c(c1)C(=O)N(c1ccc(Oc3ccccc3)cc1)C2=O	-0.44
CC(C)C1C(=O)OC2(C)CC(C)(C)NC(=S)N12 (centres undefined)	-0.06
CCC(C)(NC(=O)CNC(C)=O)C(=O)NC1CCCCC1 (centres undefined)	0.9
CC(=O)c1cccc(Nc2nc(-c3ccccc3Cl)nc3ccccc23)c1	1.9
CCCNC(=O)c1cnc2n(c1=O)CCS2	-0.24
Cc1nc2nc(S(=O)(=O)N(CC(C)C)CC(C)C)nn2c(C)c1C	0.04
CCOc1ccc2nc(SCC(=O)N3CCc4ccccc43)sc2c1	2.2
CC1CC(C)CN(S(=O)(=O)c2ccc(F)c(C(=O)NCc3ccc(F)cc3)c2)C1 (centres undefined)	0.44

Quoted from the listing:
Value of `CCCN(CCC)c1nc(-c2ccccc2F)nc2ccccc12` in Measles inh: 0.63
Value of `CCC(C)(NC(=O)CNC(C)=O)C(=O)NC1CCCCC1` (centres undefined) in Measles inh: 0.9
